ClpP mod: qHTS Assay for Activators of ClpP | ATP-dependent Clp protease proteolytic subunit (Bacillus subtilis (strain 168)), P80244 | purified B. subtilis ClpP, FRET peptide cleavage, 20 min | Potency, µM (titrated, usually from 57.5 µM), without a hit: top-dose activity change, negative = active | 340,000 tested, 1.9% active; active = well fitted falling curve with a large enough effect; inconclusive = small, poorly fitted or top-dose-only effect; inactive = no such curve, though single readings can be large or run the other way; note: potency is the fitted concentration of half-maximal effect; the source files actives as falling curves though it sought activators and does not explain the sign; nearly all actives have a fitted effect of over 65% in size; many hits overshoot -100%
Target sequence (P80244 whole entry, looked up): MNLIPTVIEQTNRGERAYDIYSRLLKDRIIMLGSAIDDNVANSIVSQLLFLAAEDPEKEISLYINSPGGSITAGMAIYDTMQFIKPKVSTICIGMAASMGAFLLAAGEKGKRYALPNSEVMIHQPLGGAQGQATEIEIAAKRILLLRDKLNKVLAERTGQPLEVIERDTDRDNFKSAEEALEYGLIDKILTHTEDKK
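Purified B. subtilis ClpP, 10 microg/mL final in Tris/HCl pH8 with KCl, BSA, glycerol and Tween-20, cleaved an Abz/nitrotyrosine-quenched decapeptide. Fluorescence (ex 320, em 430) was read at 0 and 20 min at room temperature. Delta was normalized to 5.8 microM ADEP and DMSO/no-enzyme controls.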
CtBP-E1A blk: CtBP/E1A binding inhibition; AlphaScreen GST-E1A/His-CtBP binding, 1536-well; hits give low values; control for the full effect not named in the record; activity change, % (concentration not given with the values); 340,000 tested, 0.49% active; in the data active means activity change below about -65%; inconclusive means about -30% to -65%; inactive means above about -30%; note: % is set by controls: 0 for no effect and ±100 for the full control effect
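Steps: dispense buffer (Tris pH 8.0, NaCl 300 mM, TCEP 1 mM, BSA, Tween 20); add 5X protein mix (GST-E1A, His-CtBP, 125 nM each); pin 23 nL compound; 2 h at 37 °C, dark; add 5X beads (50 ug/mL); 1 h; read.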
Menin-MLL FL inh: displaces fluorescein MLL peptide from human menin | Fluorescence polarization, fluorescein-MLL peptide displacement from menin | FP activity change, % at 61.4 µM | 290,000 tested, under 10 active; inconclusive = falling polarisation curve, or a change in total fluorescence; inactive = total fluorescence flat and polarisation flat or rising; no compound was filed as active; the % refers to the polarisation; negative = inhibition;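 note: % of control where 0% means no effect; inhibitors lower the polarisation; unlabelled MLL peptide was the positive control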
TRPV1 PAM: enhances activation of the human vanilloid receptor TRPV1; AID 540277; 320,000 tested, 0.02% active; potentiation, % at 8.33 µM; TRPV1-expressing cells, Fluo-8 calcium influx, capsaicin EC20 potentiation; host cell line not named in the record; control for the full effect not named in the record; Q8NER1; active means potentiation above 80%; inconclusive means 30% to 80%; inactive means below 30%; note: 0% is about no effect
Target sequence (Q8NER1 whole entry, looked up): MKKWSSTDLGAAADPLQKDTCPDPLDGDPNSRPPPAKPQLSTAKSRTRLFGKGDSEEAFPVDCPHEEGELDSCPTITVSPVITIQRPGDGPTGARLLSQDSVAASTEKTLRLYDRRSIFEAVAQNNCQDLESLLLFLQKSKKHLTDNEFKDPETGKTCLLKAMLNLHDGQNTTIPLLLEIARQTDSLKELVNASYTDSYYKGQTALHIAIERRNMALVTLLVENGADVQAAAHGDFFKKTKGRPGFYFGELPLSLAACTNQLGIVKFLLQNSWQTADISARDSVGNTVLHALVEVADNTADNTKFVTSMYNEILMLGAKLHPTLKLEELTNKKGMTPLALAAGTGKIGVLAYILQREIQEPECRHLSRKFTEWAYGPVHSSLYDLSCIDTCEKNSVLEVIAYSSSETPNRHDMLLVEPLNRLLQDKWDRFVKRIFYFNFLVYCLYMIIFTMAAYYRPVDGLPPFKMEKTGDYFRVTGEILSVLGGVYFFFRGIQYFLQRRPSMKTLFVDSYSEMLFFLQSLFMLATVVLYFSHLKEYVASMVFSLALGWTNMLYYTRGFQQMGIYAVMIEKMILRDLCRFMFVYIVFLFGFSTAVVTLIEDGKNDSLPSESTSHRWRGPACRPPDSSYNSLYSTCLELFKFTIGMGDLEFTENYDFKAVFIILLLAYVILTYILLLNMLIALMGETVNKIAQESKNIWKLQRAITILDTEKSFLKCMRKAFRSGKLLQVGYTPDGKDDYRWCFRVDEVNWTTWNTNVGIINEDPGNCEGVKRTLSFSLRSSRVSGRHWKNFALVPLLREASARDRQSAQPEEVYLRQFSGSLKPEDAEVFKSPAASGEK
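Fluo-8 calcium influx in TRPV1-expressing cells, kinetic read (ex 480/em 520 nm). Compound added and read 3 min for agonist activity, followed by capsaicin at EC20 final and 2 min further read for enhancement.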
gsp agonist: activates gsp, the McCune-Albright syndrome mutation. gsp mutant cells, cAMP HTRF, 30 min; control for the full effect not named in the record. Potency, µM (doses to about 76.9 µM), inactives show at the highest dose activation (cAMP increase), hits mostly activators. 340,000 tested, 0.13% active; active = well fitted activation curve with a large enough effect; inconclusive = small, poorly fitted or top-dose-only effect, or another doubt; inactive = no such curve, though single readings can be large or run the other way; cell line not stated here;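 note: phosphodiesterase inhibitor Ro 20-1724 added with compounds to block cAMP breakdown; potency is the fitted concentration of half-maximal effect; nearly all actives have a fitted effect of over 60% in size; about a fifth of the inactives were tested at one dose only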
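Cells in DMEM/10% FBS with G418 were pretreated with compounds in DMSO plus […] (300 uM stock) for 30 min at 37C. cAMP was measured by HTRF (cAMP-d2 plus anti-cAMP antibody-K) after 30 min at room temperature.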
gsp antagonist: antagonists of gsp mutant (McCune-Albright syndrome); 340,000 tested, 0.4% active; Potency, µM (titrated, usually from 76.9 µM), inactives show at the highest dose activity change, negative = inhibition, usual class: inhibitors; gsp-mutant cells, cAMP HTRF, 30 min; control for the full effect not named in the record; active = falling curve of any shape with a large fitted effect; inconclusive = falling curve, mostly with a smaller effect; inactive = flat or rising curve; cell line not stated here;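 note: intracellular cAMP measured with PDE inhibitor Ro 20-1724 present during compound exposure; potency is the fitted concentration of half-maximal effect; % is set by controls: 0 for no effect and ±100 for the full control effect; nearly all actives have a fitted effect of over 65% in size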
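HTRF cAMP measurement after 30 min RT detection following 30 min, 37C compound treatment alongside […] (added as 300 uM solution) in G418-selected cells seeded at 2000/well and grown 16–24 h.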
Sfp inh: inhibitors of Bacillus subtilis Sfp phosphopantetheinyl transferase | Q9F4F7 | Biochemical Sfp PPTase activity, qHTS | Potency, µM, inactives show max response, negative = inhibition, most hits filed as inhibitors | 310,000 tested, 3.5% active | AID 1490; active = well fitted inhibition curve with a large enough effect; inconclusive = small, poorly fitted or top-dose-only effect, or another doubt; inactive = no such curve, though single readings can be large or run the other way;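 note: the enzyme is Sfp with the accession as filed and its product quenches rhodamine fluorescence; potency is the fitted concentration of half-maximal effect; 0% = enzyme reaction without inhibitor and -100% = no enzyme wells; top concentration of the series not given in the record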
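With Hepes-Na pH 7.6 buffer containing 10 mM MgCl2, Sfp (15 nM) modified BHQ-2-YbbR (12.5 uM) using rhodamine-CoA (5 uM). Two reads 30 minutes apart at 525/598 nm yielded each well's rate.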
Active calls of the source: *; i = inactive; ? = inconclusive; nt = not tested or not shown; ! = not confirmed by another sample; [ ] = dose if it differs, or a comment. Rows are unselected; overall some 5.3% were active at least once.

mol,ClpP mod,CtBP-E1A blk,Menin-MLL FL inh,TRPV1 PAM,gsp agonist,gsp antagonist,Sfp inh
Cc1ccc(O)c(-c2cc(-c3ccccc3C)[nH]n2)c1,0.1%,-1,2.2,-5,-3%[15.4 µM],?,4%
Cc1cccc(NC(=S)NC2CC3C=CC2C3)c1 (stereo not given),nt,-19,3.2,-26,25%[15.4 µM],-3%,7%
COCc1cc(C)nc(SCC(=O)NC2CCCCC2C)c1C#N (stereo not given),-1.6%,0,nt,6,-21%,10%,-1%
O=C(COC(=O)c1cc2ccccc2o1)NCc1ccco1,-19%,nt,nt,-18,9%,-2%,nt
CCOc1ccc(NC(=O)CN(C)Cc2cc(=O)n3c(-c4ccccc4)csc3n2)cc1OCC,0.0%,0,2.3,9,-14%[15.4 µM],-2%,1%
COc1ccc(C2C(C(=O)Nc3ccc4c(c3)OCCO4)c3ccccc3C(=O)N2C)cc1 (stereo not given),-3.6%,-2,-0.7,0,4%,2%,15%
COc1ccc(-c2cc(C#N)nc(Oc3ccc(Cl)cc3)n2)cc1,7.9µM*,3,-1.7,-12,21%,6%,-4%
CCOC(=O)c1sc(NC(=O)/C=C/c2cnn(CC)c2C)c(C(=O)OCC)c1C,?,51,1.6,14,-14%,-12%,25µM*
Cc1ccc(OCCC(=O)OCC(=O)Nc2cc(C)nn2-c2ccccc2)cc1,-0.7%,4,nt,11,-36%[inhibitor],-28%,19%
CCN(Cc1ccncc1)C(=O)CSc1ccc2ccccc2c1,-0.5%,5,0.1,-13,-4%,-16%,-4%
CCN(CC)c1ccc(C(=O)OCC(=O)NC2CCCCC2C)cc1 (stereo not given),29%,-1,2.4,2,27%,4%,-14%
CNC(=O)CC(C(=O)O)c1ccc(OCC(C)C)cc1 (stereo not given),0.5%,4,-6.5,1,-2%[15.4 µM],5%,5%
Fc1ccc(-c2csc(=S)[nH]2)cc1,nt,-14,-1.6,7,19%,-10%,11µM*
Cc1c(C(=O)O)oc2ccc(S(=O)(=O)N(CC(C)C)CC(C)C)cc12,1.6%,4,2.3,4,-21%,1%[15.4 µM],0%
CCOC(=O)N1CCN(Cc2oc(CO)cc(=O)c2O)CC1,-0.9%,-3,1.0,-22,5%,-3%,-23%
CC(C)N(C(=O)[C@H]1CC(CC(=O)NCCN2CCOCC2)C(=O)N2CCc3c([nH]c4ccccc34)[C@]12C)C(C)C (stereo not given in full),-1.6%,2,nt,nt,nt,6%,nt
NS(=O)(=O)c1ccc(CNC(=O)c2cc(S(=O)(=O)N3CCOCC3)ccc2N2CCCC2)cc1,-8.9%,2,nt,nt,9%,nt,nt
O=C(NCc1cccnc1)c1ccc(-c2cc(Cl)ccc2Cl)o1,-10%,-5,12,-11,?,-13%,56µM*
CC(=O)C[C@H](O)CC(=O)[C@@H]1OC(=O)CCCCC/C=C/Cc2ccccc21,-1.4%,-8,nt,nt,-84%[inhibitor],7%,nt
C=CCn1cc(C(=O)OCC)c(=O)c2cc(F)c(F)cc21,1.0%,5,0.8,6,6%[15.4 µM],-7%,19%
O=c1[nH]c(CN2CCN(c3ccccc3O)CC2)nc2scc(-c3ccccc3Cl)c12,-0.8%,-14,14,3,5%,3%,23%
CCOC(=O)C(CC)n1cnc2c(nnn2-c2ccc(F)cc2)c1=O (stereo not given),-1.2%,8,-2.8,-12,-4%,-8%,18%
CC1(C)COC(c2ccccc2Cl)OC1,nt,1,nt,nt,-9%,8%,nt
Clc1ccc(-c2onc3c2CCCC3)cc1,-1.1%,12,-0.9,-9,16%,-13%,-4%
COc1ccc2nc3cc(Cl)ccc3c(Nc3cc(C(C)C)c(O)cc3C)c2c1,nt,-29,0.7,14,-44%[inhibitor],-20%,50µM*
Cc1cc2c(cc1C)-c1nnc(-c3ccc4ccccc4n3)n1C(C)(C)C2,nt,nt,2.6,4,nt,nt,16%
CCN(CC(=O)Nc1ccc(NC(C)=O)cc1)C(=O)CN1C(=O)C2CCCCC2C1=O (stereo not given),-1.4%,-13,nt,-4,5%,5%,nt
COc1ccc(CN2CCC(Oc3ccc(C(=O)N4CCCCC4)cc3)CC2)cc1C,-2.7%,-15,-2.3,3,7%,11%,-1%
CCCn1c(=O)c2ccccc2n2c(SCC(=O)NCc3cccs3)nnc12,-4.5%,-6,3.5,-6,3%,-7%,-22%
CCC(CC)C(=O)c1c[nH]c(C(=O)NCc2ccncc2)c1,432%,-6,0.6,?,-15%[15.4 µM],10%,2%
O=C(c1cccc(F)c1)n1nnc2ccccc21,0.1%,4,-1.8,0,-1%,0%,14%
NC(=O)c1ccc([N+](=O)[O-])cc1SCc1ccccc1,1.0%,0,-2.1,4,-67%[inhibitor],1%,-11%
Fc1ccccc1-c1[nH]ncc1-c1nnnn1-c1ccccc1,-0.2%,nt,-2.7,2,0%,-5%,13%
O=C(CC1SC(=Nc2ccccc2)N(CCO)C1=O)Nc1ccccc1 (stereo not given),nt,-8,6.2,6,35%,-12%,-4%
Cc1ccc(C)c(S(=O)(=O)N(C)Cc2cccs2)c1,-6.7%,-6,nt,-7,-50%[inhibitor],-5%,nt
CCSc1n[nH]c2nc3c(c(=O)n12)C1(CCCC1)Cc1ccccc1-3,14µM*,9,2.5,21,10%,-5%,9%
COc1ccc(-n2c(-c3ccc(C(C)(C)C)cc3)n[nH]c2=S)c(OC)c1,?,-8,nt,nt,29%,nt,nt
O=C(Nc1ccccc1)c1ccc(S(=O)(=O)N2CCCCC2)cc1,-0.5%,4,3.9,-2,-36%[inhibitor],-4%,3%
COc1cc(/C=N/Nc2ccc(Cl)c(C(=O)O)c2)ccc1OC(=O)c1ccco1,nt,1,6.7,3,-8%[15.4 µM],-9%,-5%
Cc1ccccc1S(=O)(=O)Nc1nc2ccccc2nc1N1CCc2ccccc2C1,?,18,4.5,14,-6%[15.4 µM],-15%,-8%
Cc1cc(Cl)ccc1OCCNC(=S)NC(=O)c1cccnc1,-7.8%,7,nt,-12,-6%,-25%,12%
O=C(NNc1nc2c(F)cccc2s1)C1=COCCO1,-1.1%,6,-0.3,4,-2%[15.4 µM],18%,14%
Cc1ccc(-c2csc(NC(=O)c3ccc(Br)cc3)c2C(=O)O)cc1,nt,5,-0.2,?,9%,?,17%
CCCC[C@]12Cc3ccccc3C(O1)c1c(cc(-c3ccccc3)oc1=O)O2,nt,nt,?,i,nt,nt,6%
O=C(NCc1ccc(F)cc1)N1CCN(S(=O)(=O)c2ccccc2F)CC1,nt,3,-1.1,-4,-10%[15.4 µM],5%,20%
Cc1ccc(-n2c(=O)c3c4c(sc3n(Cc3cc(=O)n5ccccc5n3)c2=O)CCC4)cc1C,28µM*!,1,6.7,-6,?,-10%,-14%
CCc1cccc(NS(=O)(=O)c2ccc3c(c2)n(C)c(=O)n3C)c1,1.6%,4,2.0,-9,-15%[15.4 µM],-5%,5%
O=C1OCCN1C(=O)[C@H]1[C@H](c2ccc([N+](=O)[O-])cc2)C(c2ccccc2)=NN1c1ccc(Br)cc1,0.8%,-11,1.0,nt,nt,-3%,13%
CCc1ccc(-c2nc(SCC(=O)N(CC)C3CCS(=O)(=O)C3)n[nH]2)cc1 (stereo not given),-2.6%,2,nt,-5,-3%,7%,nt
CCN(C(=O)CSc1nnc(NC2CCCCC2)s1)C1CCS(=O)(=O)C1 (stereo not given),-3.7%,0,0.9,4,9%,-2%,-4%
COc1ccc(C(=O)N2CCNC(=O)C2)cc1S(=O)(=O)Nc1ccc(Br)cc1,-3.6%,-4,nt,1,12%,6%,nt
Cc1c(NC(=O)/C(C#N)=C/c2ccc(-c3cc(Cl)ccc3Cl)o2)c(=O)n(-c2ccccc2)n1C,5.5%,5,4.6,27,4%,?,-8%
Cc1ccc(C(=O)NCC(=O)OCc2cccc(Br)c2)cc1,-1.9%,-3,nt,-9,5%,-1%,nt
CCN(C(=O)CSc1nc2ccccc2o1)c1c(N)n(Cc2ccccc2)c(=O)[nH]c1=O,-12%,-16,nt,13,-27%,6%,nt
Cc1ccc(OCCOC(=O)CCc2nc3ccccc3c(=O)[nH]2)cc1,nt,-4,-5.7,15,0%[15.4 µM],-3%,17%
COc1ccc(CNC(=O)C2CCCN(S(=O)(=O)c3ccc(Br)s3)C2)cc1 (stereo not given),-1.1%,-7,nt,-5,-6%[15.4 µM],-10%,7%
Cn1c(CN2CCCC2)nc2cc(NC(=O)COc3ccc([N+](=O)[O-])cc3)ccc21,3.6%,-5,6.8,17,-2%,12%,-6%
O=C1[C@@H](Oc2ccccc2)[C@@H](c2cccnc2)N1c1ccccc1,2.8%,2,nt,nt,nt,3%,nt
CC(C)Oc1ccc(S(=O)(=O)N2CCCCC2)cc1NC(=O)C1=NN(c2ccccc2)C(=O)CC1,-0.9%,4,nt,nt,24%,nt,nt
COc1ccc(-c2nnc(NC(=O)c3c(OC)cccc3OC)s2)cc1,-20%,nt,2.1,-9,?,-10%,11%

The listing continues:
mol,ClpP mod,CtBP-E1A blk,Menin-MLL FL inh,TRPV1 PAM,gsp agonist,gsp antagonist,Sfp inh
COc1ccc(CNC(=O)C[C@H]2C[C@H](C(=O)N3CCOCC3)[C@@]3(CCC4CCCC4)c4[nH]c5cc(CCC(=O)N(C)C)ccc5c4CCN3C2=O)cc1OC,-2.0%,0,nt,nt,nt,-8%,nt
Cc1cc(C)cc(NC(=O)CSc2nncn2-c2ccccn2)c1,nt,-2,3.2,3,?,-6%,2%
CN1N=C(C(=O)N2CCc3c([nH]c4ccccc34)C2c2c(F)cccc2Cl)CCC1=O (stereo not given),-1.5%,-7,-0.6,6,13%[15.4 µM],-23%,0%
Cn1c(=O)oc2cc(S(=O)(=O)NC3CCCCC3)ccc21,nt,6,-0.9,19,2%,9%,8%
Cc1cc2c(cc1C)N(C(=O)CN1C(=O)c3ccccc3C1=O)C(C)(C)c1ssc(=S)c1-2,0.1%,?,0.1,12,?,-7%,0%
N/C(=N\OC(=O)c1ccco1)c1cccc([N+](=O)[O-])c1,nt,-16,2.4,-19,5%[15.4 µM],nt,-31%
O=C(NCc1ccc(F)cc1)c1cnccn1,nt,-1,4.6,-5,-22%,11%,19%
CCCC(CNC(C)=O)(C1=CCCCC1)c1ccccc1 (stereo not given),0.1%,-3,nt,nt,-23%,nt,nt

Bioassay records as filed in PubChem.
